RGS16-Gao HTS – RGS16-Galphao interaction regulator (human); O15492+P09471; bead-based flow cytometry RGS16-Galphao binding, fluorescence; actives lie on both sides; binding response (% of control), % at 10 µM; actives 0.38% (n = 220,000); AID 1441;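 active = below 25% or above 175%, edge rows of some plates excepted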;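 note: Galphao activated by GDP with aluminum fluoride before binding; 100% = wells without compound and 0% = beads without RGS; some results beyond the cut were filed as inactive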
Target sequence (O15492 whole entry, looked up): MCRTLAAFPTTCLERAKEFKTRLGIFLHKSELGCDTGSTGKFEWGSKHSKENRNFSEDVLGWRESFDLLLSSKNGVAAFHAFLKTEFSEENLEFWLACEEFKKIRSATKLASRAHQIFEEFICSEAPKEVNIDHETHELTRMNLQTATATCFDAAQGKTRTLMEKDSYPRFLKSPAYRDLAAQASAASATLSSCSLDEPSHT
Target sequence (P09471 whole entry, looked up): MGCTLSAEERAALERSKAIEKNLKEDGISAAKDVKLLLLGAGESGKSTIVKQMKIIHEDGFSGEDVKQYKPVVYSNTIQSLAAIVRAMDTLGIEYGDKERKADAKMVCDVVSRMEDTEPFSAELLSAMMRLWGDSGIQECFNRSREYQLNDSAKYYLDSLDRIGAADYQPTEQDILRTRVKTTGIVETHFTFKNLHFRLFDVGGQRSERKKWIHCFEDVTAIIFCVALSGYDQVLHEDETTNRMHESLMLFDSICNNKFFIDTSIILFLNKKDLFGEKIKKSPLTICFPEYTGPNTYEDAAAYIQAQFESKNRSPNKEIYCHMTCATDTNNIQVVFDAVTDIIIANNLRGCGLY
GALR2 ag – GALR2 (human) receptor agonism; O43603; GALR2-expressing cells, agonist activation read-out; activation, %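 (tested at 5 µM)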; actives 0.48% (n = 140,000); AID 803;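 active = above mean plus 3 SD of all compounds, about 5% in these data, not always enough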;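 note: 0% = vehicle buffer wells and 100% = reference agonist at full effect; tested in CHO reporter cells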
Target sequence (O43603 whole entry, looked up): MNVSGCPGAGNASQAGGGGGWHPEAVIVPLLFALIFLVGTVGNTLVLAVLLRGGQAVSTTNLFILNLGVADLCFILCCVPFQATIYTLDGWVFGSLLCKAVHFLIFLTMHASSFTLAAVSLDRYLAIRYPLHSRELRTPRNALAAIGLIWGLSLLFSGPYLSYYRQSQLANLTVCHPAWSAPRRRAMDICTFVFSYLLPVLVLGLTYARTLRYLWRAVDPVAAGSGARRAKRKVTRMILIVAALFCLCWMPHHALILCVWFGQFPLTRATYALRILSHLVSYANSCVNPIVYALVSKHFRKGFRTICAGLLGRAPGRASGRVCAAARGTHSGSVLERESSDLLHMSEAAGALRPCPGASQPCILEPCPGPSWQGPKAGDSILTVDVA
HSV augment – HSV replication enhancement | AID 1956 | maximum fold increase | actives 0.005% (n = 220,000) | HSV replication augmentation in cells, fold increase;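 active = peak rise of 1.5-fold or more in the series; inconclusive = self-fluorescent or not available for retest; tested in PC3 cells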;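 note: first round at 10 µM; read as green reporter fluorescence; hits show the peak of a series up to 25 µM; 1 = signal of infected wells without compound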
PKD1 inh – inhibitors of human PKD1 kinase. Q15139. PKD1 kinase fluorescence polarization assay. inhibition, %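 (about 10 µM by stock and volumes)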. actives 0.056% (n = 200,000);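 active = inhibition of 50% or more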;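 note: controls were vehicle for no effect and a reference inhibitor for full effect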
Insulin prom inh – TRM-6 insulin promoter activity inhibition. TRM-6 cells (human fetal islet line), insulin promoter-eGFP reporter, imaging; reporter expression induced with tamoxifen. inhibition, % at 2 µM. actives 0.9% (n = 130,000). AID 1273;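 active = inhibition above the mean plus 3 SD, with well images judged a real hit on visual review, cut at about 60% in these data, passing the limit was not always enough; inconclusive = inhibition over the cutoff but images rejected on review; inactive = inhibition not above the cutoff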
Insulin prom inh cell count – second read-out of Insulin prom inh, no call of its own (marks repeat the call); normalized cell count, %; measured here: cell count, toxicity; reference of the scale not given here;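 cells exposed to compound for 48 h; stained nuclei by imaging scaled within each plate; lower means fewer cells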
HSV augment primary fold – further read-out of HSV augment, marked with its call; fold increase; compound at 10 µM; measured here: primary screen fold increase 10 uM; tested in PC3 cells;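 GFP signal in the first replicate; 1 = infected wells without compound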
Starred values were filed as active, the others as inactive; i = inactive; ? = inconclusive; . = not tested or not shown; & = joins results of further samples.

SMILES,Insulin prom inh,GALR2 ag,Insulin prom inh cell count,HSV augment primary fold,PKD1 inh,HSV augment,RGS16-Gao HTS
COc1ccc(S(=O)(=O)N2CCCC(C(=O)NCc3ccncc3)C2)cc1Cl (stereo not drawn),43,-1.6,108,0.74,1,i,93
Cc1[nH]c(C(=O)N/N=C/c2ccc(C(=O)O)cc2)c(C)c1C(=O)N/N=C/c1ccc(C(=O)O)cc1,0,-0.9,136,0.99,7,i,100
CC(O)C(=O)NCCOCCOCCNC(=O)C(C)O (stereo not drawn),64,-0.8,94,0.85,-6,i,104
CCOC(=O)CSc1nn(-c2ccccc2)c(=S)s1,-7,.,49,0.97,-4,i,106
COc1cc(NC(=O)C2=C(N3CCOCC3)/C(=C\c3ccc(Br)cc3)CC2)cc(OC)c1OC,.,-1.4,.,1,-4,i,97
CCC(=O)Nc1cccc(C2=NOC3(C2)C[C@@H](C(N)=O)N(C(=O)CC)C3)c1 (stereo partly drawn),.,.,.,0.87,.,i,113
COc1cc(NC(=O)c2ccc(F)cc2)c(OC)cc1Cl,-19,-0.7,97,1.1,3,i,102
O=C1NCCCC1C(=O)Nc1ccccc1C(F)(F)F (stereo not drawn),14,-1.8,101,0.82,-10,i,99
CCOC(=O)N1CCC(=NNC(=O)COc2cccc(C)c2)CC1,.,-0.6,.,1,1,i,103
COc1ccccc1CNc1ncnc2c1cnn2-c1ccccc1,.,.,.,0.91,.,i,101
COC(=O)c1sc(N2C(=O)c3oc4ccccc4c(=O)c3C2c2cccs2)nc1C (stereo not drawn),70,-2.6,161,0.86,-8,i,108
CCOc1ccc(C(CC(=O)O)NC(=O)c2cccs2)cc1 (stereo not drawn),-29,-0.6,127,0.87,-10,i,105
CCCCC1=NC2(CCCC2)C(=O)N1Cc1ccc(-c2ccccc2-c2nn[nH]n2)cc1,.,.,.,0.87,.,i,98
COc1ccc(/C(N)=N/OC(=O)c2cccc([N+](=O)[O-])c2)cc1OC,.,-1.6,.,0.83,-8,i,114
COCCNC(=O)CSc1ncnc2sc(-c3ccccc3)cc12,.,.,.,1.2,5,i,98
CC(C)Oc1ccc(CNC(=S)N/N=C/c2ccc([N+](=O)[O-])cc2)cc1,36,-3.3,86,0.97,-3,i,101
O=C1CC(N2CCN(c3cccc(C(F)(F)F)c3)CC2)C(=O)N1c1ccc(F)cc1 (stereo not drawn),-6,-2.6,98,0.86,-6,i,102
C#CCOCCOCCOCCNc1nc(N2CCN(C(=O)[C@H](CCCCN)n3cc(C(N)CC(C)C)nn3)CC2)nc(N2CCN(C(=O)[C@H](CCC(=O)O)n3cc(C(N)[C@H](C)CC)nn3)CC2)n1 (stereo partly drawn),.,.,.,0.87,13,i,102
Cc1c(Cl)c(C(=O)NNC(=S)Nc2ccccc2)nn1C,-38,-1.4,55,.,8,.,106
CN(CCC#N)c1ccc(/C=C(\C#N)c2ccccn2)cc1,-29,-0.6,94,.,-13,?,111

Profiles from above.
COc1cc(NC(=O)C2=C(N3CCOCC3)/C(=C\c3ccc(Br)cc3)CC2)cc(OC)c1OC is listed as Insulin prom inh: .; GALR2 ag: -1.4; Insulin prom inh cell count: .; HSV augment primary fold: 1; PKD1 inh: -4; HSV augment: i; RGS16-Gao HTS: 97
COc1cc(NC(=O)c2ccc(F)cc2)c(OC)cc1Cl is listed as Insulin prom inh: -19; GALR2 ag: -0.7; Insulin prom inh cell count: 97; HSV augment primary fold: 1.1; PKD1 inh: 3; HSV augment: i; RGS16-Gao HTS: 102

(next part)
SMILES,Insulin prom inh,GALR2 ag,Insulin prom inh cell count,HSV augment primary fold,PKD1 inh,HSV augment,RGS16-Gao HTS
CCn1nc(C)c(/C=N/NC(=O)c2ccoc2C)c1C,29,-2.7,59,0.9,-5,i,101
CCOc1ccc2[nH]c(=O)c(CN(CCCO)C(C)=O)cc2c1,41,-1.5,80,1.1,-8,i,105
CC(C)[C@H](NS(=O)(=O)c1cccc(C(F)(F)F)c1)C(=O)OCC(N)=O,.,.,.,0.92,-2,i,98
Nc1nc(C(=O)N2CCOCC2)nn1C(=O)c1ccc(Cl)cc1,.,-0.3,.,0.93,-12,i,101
CCc1ccc(C(=O)OCC(=O)c2c(N)n(CC(C)C)c(=O)n(C)c2=O)cc1,10,.,142,0.86,-3,i,49
N#CC(c1ccccc1)(c1ncc(C(F)(F)F)cc1Cl)N1CCOCC1 (stereo not drawn),38,-1.1,127,.,-5,.,97
O=C(Nc1ccc(F)cc1)C(Sc1nnc2ccccn12)c1ccccc1 (stereo not drawn),-13,0.8,99,0.92,5,i,84
Cn1c(SCC(=O)Nc2cccc(NC(=O)c3cccs3)c2)nnc1-c1ccncc1,.,-0.8,.,0.99,-4,i,105
Cc1nc2ncnn2c(C)c1CCC(=O)NCCCN1CCN(c2cccc(Cl)c2)CC1,38,-2.3,117,.,3,.,126
O=C(O)COc1ccccc1C1C2C(=O)N(c3ccccc3)C(=O)C2ON1c1ccccc1 (stereo not drawn),.,-1.9,.,1.1,-2,i,102
C[C@H](N)C(=O)OCc1ccc([N+](=O)[O-])cc1,.,.,.,1.1,.,i,96
O=C(Cn1cc(C(=O)c2cccs2)c2ccccc21)NC1CCCCC1,19,-0.8,73,0.74,3,i,88
COc1ccccc1CNC(=O)COC(=O)CCC(=O)c1cccs1,.,.,.,1,5,i,118
CN(C)CCNc1oc(-c2ccccc2F)nc1C#N,.,-2.0,.,1.2,-3,i,103
Cc1cc(/C=C2\SC(=S)N(C)C2=O)c(C)n1-c1cccc(O)c1,.,.,.,1.2,.,i,99
COc1ccc(S(=O)(=O)N(C)CC(=O)Nc2ccc(F)cc2)cc1,-10,-0.1,88,0.76,-13,i,97
N#CC(=C=[N-])c1nc2ccccc2nc1-[n+]1ccccc1,-16,-1.2,94,1.1,0,?,97&102
Cc1cc(C)n(C(=O)CCCCCCCCC(=O)n2nc(C)cc2C)n1,-8,-4.1,141,1,0,i,101
CC(C)Cn1c2ccccc2c2cc(C(=O)O)ccc21,4,-2.8,85,1,-6,i,102
CCOC(=O)c1[nH]c(C)c(C(=O)Nc2ccc(C)c(F)c2)c1C,9,44*,83,0.78,-13,i,105
Cc1cccc(-n2c(SCc3cc(=O)n4c(C)cccc4n3)nc3[nH]ncc3c2=O)c1,13,-1.6,44,.,4,.,110
CCCCN(C)C(=S)Nc1ccc2nc(N3CCN(CC)CC3)cc(C)c2c1,.,.,.,0.7,-11,i,95
CC1CCCN(C(c2cccs2)c2nnnn2Cc2ccccc2)C1 (stereo not drawn),25,-1.8,59,0.85,-4,i,99
CN1CCNC(=O)C1CC(=O)O (stereo not drawn),6,-2.5,135,0.93,6,i,108
CCCn1c(CCC(=O)O)nc2cc(S(=O)(=O)N3CCCC3)ccc21,.,.,.,0.99,.,i,103
COc1cc(NC(=O)Nc2cccc(Cl)c2)c(C(=O)O)cc1OC,.,.,.,1.1,.,i,106
CCN(C(=O)COC(=O)c1ccc(Br)o1)C1CCCCC1,14,.,73,1,-7,i,65
Cc1ccc(-c2c3c(=O)n(C)c(=O)n(C)c3cn2CCCN2CCOCC2)cc1,-3,1.5,124,0.89,-5,i,109
Cc1cc(C(=O)CSc2nncs2)c(C)n1-c1ccc2c(c1)OCO2,.,-1.3,.,0.74,-9,i,100
CCC1SC(C)C/C(=N/NC(N)=O)C1C (stereo not drawn),.,.,.,1.1,.,i,98
N#C/C(=C/c1ccc(F)cc1)S(=O)(=O)c1ccccc1,.,.,.,0.93,.,i,99
C/C(Cn1nnc([N+](=O)[O-])n1)=N\NC(=O)c1ccccc1,.,-2.2,.,0.89,-2,i,101
CN(Cc1ccccc1)C(=O)CN(Cc1ccccc1)S(C)(=O)=O,-44,0.1,95,0.78,-1,i,96
COc1ccc(CN2C3CCCC2CC(NC(=O)Nc2cccc(C)c2)C3)cc1 (stereo not drawn),10,-3.1,150,0.87,-4,i,104
CCOc1ccc(CC(=O)NNC(=S)Nc2ccccc2)cc1Br,27,-1.8,100,1,-10,i,113
Cc1ccc(S(=O)(=O)c2c(CO)c(-c3ccccc3)nn2C)cc1,.,.,.,0.95,-1,i,99
O=C(c1ccc(S(=O)(=O)c2ccc(Cl)cc2)cc1)N1CCOCC1,.,.,.,0.95,-7,i,106
CCN(CC)S(=O)(=O)c1ccc(OC)c(NC(=O)COc2ccccc2[N+](=O)[O-])c1,.,.,.,0.98,-1,i,96
C[C@@H]1C[C@H](Nc2ccccc2)c2ccccc2N1C(=O)c1cccnc1,-181,-2.4,140,0.97,-5,i,98
C=CCNC(=O)N[C@@H](Cc1ccccc1)C(=O)OC,.,.,.,0.97,.,i,92
O=C(NCc1ccc(F)cc1)C1CCCN(S(=O)(=O)c2cccnc2)C1 (stereo not drawn),.,-1.2,.,1,1,i,104
O=C1CN(C(=O)COc2ncnc3ccccc23)c2ccccc2N1,0,-2.6,151,1,-8,i,112
COc1ccc(NC(=O)c2ccc(-c3ccc(OC)cc3)s2)cc1,-36,.,119,0.95,-3,i,111
COc1cc(NC(=O)C/C(C)=N/NC(=O)c2cccs2)c(OC)cc1Cl,.,.,.,0.82,0,i,110
O=CN1CCN(C2CC(=O)N(c3ccc4c(c3)OCO4)C2=O)CC1 (stereo not drawn),.,-2.2,.,0.89,-7,i,103
COc1ccccc1NC(=O)Cc1nn(C)c(=O)c2ccccc12,-23,-1.6,113,0.92,-4,i,105
CC(=O)Nc1cc(O)cc(O)c1,.,.,.,0.92,.,i,101
Fc1ccc(-c2nnc(Cc3nnc(-c4ccc(F)cc4)o3)o2)cc1,.,-1.2,.,0.93,-8,i,105
c1ccc2cc(OCCN3CCCC3)ccc2c1,-110,0.3,100,1,-3,i,99
Oc1ccc(/C=N/Nc2ncc(Br)cn2)c(O)c1,.,-1.7,.,0.77,1,i,117

More compounds follow.
SMILES,Insulin prom inh,GALR2 ag,Insulin prom inh cell count,HSV augment primary fold,PKD1 inh,HSV augment,RGS16-Gao HTS
COc1ccc(C(=O)NC(=S)N2CCOCC2)cc1OC,.,.,.,0.87,-6,i,114
Cc1cc([N+](=O)[O-])cc(/C=N\NC(=O)C2COc3ccccc3O2)c1O (stereo not drawn),.,.,.,0.99,.,i,98
O=C(O)C1CSC(c2ccccc2Cl)N1C(=O)c1ccc(Cl)cc1 (stereo not drawn),-57,-0.8,137,1,-15,i,106
CC(=O)N1CCC(c2c[nH]c3ccccc23)CC1,.,.,.,0.99,.,i,101
CCOC(=O)C1=C(SCC)c2cc3c(n2C1=O)CCCC3,13,-0.9,171,1,-4,i,93
Cc1cc(C)cc(NC(=O)c2cc(C)nn2C)c1,8,0.1,86,0.93,-14,i,102
O=C1c2cccc3cccc(c23)C(=O)N1CCCN(C(=O)c1cccs1)c1cccc(F)c1,25,-1.4,68,0.96,-14,i,102
Cc1ccc2c(c1)NCCO2,-17,-1.5,70,0.96,7,i,93
Cc1ccc(CNC(=O)C2CN(S(C)(=O)=O)c3cc(Cl)ccc3O2)cc1 (stereo not drawn),-16,.,83,0.99,8,i,102
COc1cccc(C(=O)OCc2ccccc2C#N)c1O,.,-3.1,.,0.94,1,i,96
CCOc1ccc2nnnn2n1,36,-0.8,59,1,-5,i,110
